# Source: PubChem
# HSV replic up = HSV replication enhancement; HSV replication augmentation in cells, fold increase; maximum fold increase; 220,000 compounds, 0.005% hits; AID 1956;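 active = peak rise of 1.5-fold or more in the series; tested in PC3 cells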;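 note: first round at 10 µM; read as green reporter fluorescence; hits show the peak of a series up to 25 µM; 1 = signal of infected wells without compound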
# Insulin prom inh = TRM-6 insulin promoter activity inhibition; AID 1273; inhibition, % at 2 µM; TRM-6 cells (human fetal islet line), insulin promoter-eGFP reporter, imaging; reporter expression induced with tamoxifen; 130,000 compounds, 0.9% hits;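 active = inhibition above the mean plus 3 SD, with well images judged a real hit on visual review, cut at about 60% in these data, passing the limit was not always enough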
# RGS16-Gao = regulators of human RGS16-Galphao interaction. O15492+P09471. bead-based flow cytometry RGS16-Galphao binding, fluorescence; actives lie on both sides. binding response (% of control), % at 10 µM. 220,000 compounds, 0.38% hits;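 active = below 25% or above 175%, edge rows of some plates excepted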;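 note: Galphao activated by GDP with aluminum fluoride before binding; 100% = wells without compound and 0% = beads without RGS; some results beyond the cut were filed as inactive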
# GALR2 ag = agonists of human galanin receptor 2 (GALR2); O43603; GALR2-expressing cells, agonist activation read-out; activation, %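 (tested at 5 µM)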; 140,000 compounds, 0.48% hits; AID 803;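 active = above mean plus 3 SD of all compounds, about 5% in these data, not always enough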;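 note: 0% = vehicle buffer wells and 100% = reference agonist at full effect; tested in CHO reporter cells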
# PKD1 inh = PKD1 (human) kinase inhibition; Q15139; PKD1 kinase fluorescence polarization assay; inhibition, %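 (about 10 µM by stock and volumes)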; 200,000 compounds, 0.056% hits;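 active = inhibition of 50% or more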;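 note: controls were vehicle for no effect and a reference inhibitor for full effect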
# Target sequence (Q15139 whole entry, looked up): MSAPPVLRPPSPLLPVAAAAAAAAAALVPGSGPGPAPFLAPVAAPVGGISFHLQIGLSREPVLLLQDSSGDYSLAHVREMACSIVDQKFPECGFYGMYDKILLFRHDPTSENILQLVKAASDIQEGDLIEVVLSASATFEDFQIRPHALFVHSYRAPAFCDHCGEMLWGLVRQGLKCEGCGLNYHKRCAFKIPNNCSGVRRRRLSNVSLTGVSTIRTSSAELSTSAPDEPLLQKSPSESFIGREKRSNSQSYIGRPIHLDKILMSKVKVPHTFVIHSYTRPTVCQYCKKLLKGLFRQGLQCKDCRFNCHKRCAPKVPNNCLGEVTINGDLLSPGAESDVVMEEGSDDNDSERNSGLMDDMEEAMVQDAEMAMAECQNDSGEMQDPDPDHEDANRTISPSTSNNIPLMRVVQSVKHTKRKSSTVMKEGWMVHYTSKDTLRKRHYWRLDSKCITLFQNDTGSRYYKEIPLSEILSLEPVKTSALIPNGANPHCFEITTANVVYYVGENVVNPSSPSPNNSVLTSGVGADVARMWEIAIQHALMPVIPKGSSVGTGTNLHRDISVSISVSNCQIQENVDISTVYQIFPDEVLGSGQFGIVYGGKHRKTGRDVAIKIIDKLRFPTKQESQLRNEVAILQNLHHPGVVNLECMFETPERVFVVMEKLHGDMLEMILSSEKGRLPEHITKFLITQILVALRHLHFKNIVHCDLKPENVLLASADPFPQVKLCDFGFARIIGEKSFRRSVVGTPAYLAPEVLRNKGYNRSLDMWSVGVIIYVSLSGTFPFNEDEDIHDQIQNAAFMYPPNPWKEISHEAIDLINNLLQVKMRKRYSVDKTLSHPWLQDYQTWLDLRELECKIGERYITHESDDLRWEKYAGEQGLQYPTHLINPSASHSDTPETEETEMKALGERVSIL
# Insulin prom inh cell count = further read-out of Insulin prom inh, marked with its call; normalized cell count, %; measured here: cell count, toxicity; reference of the scale not given here;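 cells exposed to compound for 48 h; stained nuclei by imaging scaled within each plate; lower means fewer cells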
# HSV replic up primary fold = second read-out of HSV replic up, no call of its own (marks repeat the call); fold increase; compound at 10 µM; measured here: primary screen fold increase 10 uM; tested in PC3 cells;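 GFP signal in the first replicate; 1 = infected wells without compound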
# The depositor's hits bear a star; i = inactive; . = not tested or not shown. No enrichment for hits (roughly 1.2% active in at least one column).
SMILES,HSV replic up,HSV replic up primary fold,Insulin prom inh,Insulin prom inh cell count,RGS16-Gao,GALR2 ag,PKD1 inh
Cc1ccc(-n2c(C)cc(C(=O)Cn3nc(C(=O)O)c4ccccc4c3=O)c2C)cc1,i,1,.,.,104,0.0,0
COC(=O)CSc1nc2ccccc2n1CC(=O)N(C(C)C)C(C)C,i,1,35,112,106,-0.1,1
C=CCN(C(=O)CNC(=O)c1ccco1)C(C(=O)NC1CCCCC1)c1ccc(OC)cc1OC (stereo unspecified),i,0.99,.,.,101,-0.9,-22
CCC(Sc1nc2ccccc2c2nc3ccccc3n12)C(=O)NCc1ccco1 (stereo unspecified),.,.,25,79,97,-1.5,-6
O=C(c1ccc(Cn2c(=O)[nH]c3ccsc3c2=O)cc1)N1CCN(c2ccccc2)CC1,i,0.87,67,93,99,.,6
C=CCn1c(SCC(=O)Nc2ccc3c(c2)CCC3)nc2ccccc2c1=O,i,0.88,-83,96,88,-0.5,-4
O=[N+]([O-])c1cccc2c3c([nH]c12)CCCC3,i,0.89,.,.,108,.,.
CCNC(=O)CC1C(=O)N(c2ccc(C)cc2)C(=O)N1CCc1sccc1C (stereo unspecified),i,1,.,.,110,.,-2
N#CC(C(=O)Nc1ccccc1)=C1Nc2ccccc2N1,i,0.93,10,119,102,0.6,-11
CCN1C(=O)N[C@H](c2ccc(Br)cc2)C(C(C)=O)=C1C,i,0.81,-25,99,143,-1.2,-8
CC(=O)NCc1ccc(C(=O)CCl)s1,i,0.96,-25,157,107,.,-4
COC(=O)c1ccc(/C=C/C(=O)c2ccc(OC)cc2)cc1,i,0.95,.,.,106,-1.4,10
COc1ccccc1C(=O)C1CCCN(C(=O)c2snnc2C)C1 (stereo unspecified),i,0.92,.,.,98,.,3
O=C(CCS(=O)(=O)c1cccc2nonc12)Nc1cccc2c1CCCC2,i,0.93,10,172,94,1.4,-4
CC#CC[N+](C)(C)CCCCCCCC,i,0.93,.,.,99,.,.
COc1ccc(NC(=O)c2sccc2SCC#N)cc1,i,0.94,-25,158,101,-2.6,0
S=C(NCCCN1CCOCC1)Nc1ccc(N2CCOCC2)cc1,i,0.98,-7,142,101,.,-6
O=C(C1CCN(S(=O)(=O)N2CCOCC2)CC1)N1CCc2ccccc21,i,0.96,-7,63,106,1.6,3
CCOC(=O)C1CCN(C(=O)N(CC)CC)CC1,i,1.1,-253,82,99,.,-5
Cc1ccc(-c2noc(CN3CCN(Cc4ccccc4)CC3)n2)cc1,i,0.97,14,165,106,-1.9,6
COC(=O)C1CC(=O)c2ccsc2C1 (stereo unspecified),i,0.97,.,.,74,1.2,-16
COc1cc(NC(=O)c2c(Cl)cnn2C)c(OC)cc1Cl,i,0.9,.,.,100,.,-5
Cc1cc(C)n(C(=O)CNC(=O)COc2ccccc2)n1,i,0.9,25,84,118,-1.7,-6
COC(=O)c1ccc(C2N=C(c3cccs3)CC(c3ccccc3O)N2)cc1 (stereo unspecified),i,1.1,-12,87,100,.,-5
O=C(O)C(F)(F)C(NCc1ccccc1)c1ccccc1 (stereo unspecified),i,0.84,.,.,100,.,.

# Reprinted at random: two entries already listed
SMILES,HSV replic up,HSV replic up primary fold,Insulin prom inh,Insulin prom inh cell count,RGS16-Gao,GALR2 ag,PKD1 inh
COC(=O)CSc1nc2ccccc2n1CC(=O)N(C(C)C)C(C)C,i,1,35,112,106,-0.1,1
O=C(c1ccc(Cn2c(=O)[nH]c3ccsc3c2=O)cc1)N1CCN(c2ccccc2)CC1,i,0.87,67,93,99,.,6

# Later entries:
SMILES,HSV replic up,HSV replic up primary fold,Insulin prom inh,Insulin prom inh cell count,RGS16-Gao,GALR2 ag,PKD1 inh
O=C(Cc1cc(=O)[nH][nH]1)N/N=C/c1ccccc1[N+](=O)[O-],i,0.99,15,138,97,-0.4,-2
COCCN(C(=O)CSc1nc2ccccc2c(=O)n1CCOC)c1c(N)n(Cc2ccccc2)c(=O)[nH]c1=O,i,0.91,.,.,98,.,0
CCc1c(C)nc2cc(-c3cccs3)[nH]n2c1=O,i,1,14,103,94,-1.8,-1
COCCNc1nc(SCC(=O)N2CCN(c3ccccc3OC)CC2)nc2ccccc12,.,.,14,60,161,0.1,2
CC(/C=N/n1c(-c2ccco2)n[nH]c1=S)=C\c1ccccc1,i,1.1,.,.,103,-0.6,-9
Oc1ccc(-c2csc(-c3cccnc3)n2)cc1O,i,0.84,.,.,102,.,.
CCOC(=O)c1sc(N(Cc2ccccc2)C(=O)COC(=O)c2cnccn2)nc1C,i,0.86,.,.,100,.,-2
CC1C(=O)C(C)C(c2ccco2)NC1c1ccco1 (stereo unspecified),i,1.1,.,.,79,-0.8,-2
Cc1c(Br)c([N+](=O)[O-])nn1C(C)C(=O)NCc1cccnc1 (stereo unspecified),i,1.1,-23,89,101,-1.4,0
Cc1c(C(=O)OC2CCCC2C)[nH]c2c1C(=O)CCC2 (stereo unspecified),i,0.89,-14,151,100,-1.0,1
CCC(C)NC(=S)N(CCc1ccccc1)Cc1cc2cc(OC)c(OC)cc2[nH]c1=O (stereo unspecified),.,.,23,107,109,0.4,3
COc1cc(-c2nc(-c3ccc(NC(=O)c4ccc(Br)o4)cc3)no2)cc(OC)c1OC,i,0.63,-6,110,97,-1.8,0
CC(C)(C)C1CCc2[nH]nc(C(=O)O)c2C1 (stereo unspecified),i,0.91,-1,66,107,6.6,-7
O=C(CC1SC2=NCCN2C1=O)Nc1ccc(Br)cc1 (stereo unspecified),i,1.2,19,152,103,-1.6,-11
CCN1CCN(Cc2nc3c(c(=O)n(C)c(=O)n3C)n2CC(=O)c2ccccc2)CC1,i,0.95,.,.,101,-1.8,2
COCCNC(=O)CSc1nc2ccccc2c(=O)n1CCCC(=O)NCc1ccccc1,i,0.82,17,104,115,-0.7,-8
CSc1nnc(C2CCCN2)n1C (stereo unspecified),i,0.98,-3,48,108,-0.8,-11
O=C(CN1C(=O)COc2ccc(S(=O)(=O)N3CCOCC3)cc21)NCc1ccccn1,i,1.1,.,.,99,.,.
O=C1C(Cl)=C(NC2CCCCC2)C(=O)N1c1ccc(Cl)cc1,i,0.92,25,92,105,-1.4,-3
Cc1occc1-c1nnc(SCC(=O)NC(=O)NC(C)C)n1N,i,0.99,-36,134,102,-0.9,11
O=C(N/N=C/c1ccccn1)c1cc(-c2ccc3ccccc3c2)n[nH]1,i,0.93,.,.,102,1.2,5
COc1ccc(NC(=O)CCC(=O)OCc2ccc([N+](=O)[O-])cc2)cc1,i,1,.,.,89,.,6
COc1cc(OC)cc(C(=O)NC2CCSC2=O)c1 (stereo unspecified),i,1,18,119,111,-2.1,-7
COc1cc(S(=O)(=O)N(Cc2ccccc2)Cc2ccccn2)ccc1-n1cnnn1,i,0.99,37,102,42,-1.8,0
Cc1ccc(S(=O)(=O)n2cnc3cc([N+](=O)[O-])ccc32)c(C)c1C,i,1,45,104,106,-1.5,9
# The results go on:
SMILES,HSV replic up,HSV replic up primary fold,Insulin prom inh,Insulin prom inh cell count,RGS16-Gao,GALR2 ag,PKD1 inh
CC(C)(O[C@@H]1O[C@H](CO)[C@@H](O)[C@H](O)[C@H]1O)[C@H]1Cc2cc3ccc(=O)oc3cc2O1,i,1.1,38,89,69,-2.3,3
CCCCCCCn1ccc(=N)cc1,i,1,30,114,101,-2.1,-7
NNC(=O)c1cc2sccc2s1,i,0.79,.,.,100,.,.
CCOc1ccc(S(=O)(=O)N(C(=O)c2ccco2)c2cc3sc(=O)oc3c3ccccc23)cc1,i,0.75,-15,113,99,-1.1,-7
CC1(C)CC(=O)C(C=NCC2CCN(C(=S)Nc3ccccc3)CC2)=C(O)C1,i,0.76,.,.,101,.,.
CCC(C)(C)n1nnnc1C(c1cc2cccc(C)c2[nH]c1=O)N1CCN(C(=O)c2ccco2)CC1 (stereo unspecified),i,0.97,.,.,93,-0.9,11
CCc1c(C)nc(/N=C(/NC(=O)c2ccccc2)Nc2ccccc2OC)[nH]c1=O,.,.,-19,97,.,-2.4,-13
CC(C)N1CCNCC1,i,0.78,20,75,109,.,-4
COC(=O)c1nnn(-c2nc(N(C)C)nc(N(C)C)n2)c1C,i,0.99,12,73,104,.,-2
O=C(c1ccc(C(F)(F)F)cc1)C1CCCN(C(=O)c2cnccn2)C1 (stereo unspecified),i,1.2,.,.,102,.,10
O=C(Cc1ccccc1)NCc1ccc(F)cc1,i,1,.,.,123,-0.3,-3
Cn1c(C(=O)NCc2ccccn2)cc2c(=O)n(C)c3ccccc3c21,i,1.2,.,.,102,-2.0,-12
O=S(=O)(Nc1cccc2nsnc12)c1ccccc1,i,0.93,-479,51,97,-2.9,-4
COc1ccc(S(=O)(=O)N2CCN(Cc3ccc4c(c3)OCO4)CC2)c2ccccc12,i,0.96,.,.,100,-1.2,0
COCCNC(=S)Nc1cc(OC)c(NC(=O)c2ccco2)cc1OC,i,0.84,14,140,100,.,-9
COc1ccc2c(-c3cc4ccc(OCc5ccc(F)cc5)cc4oc3=O)cc(=O)oc2c1,i,0.79,26,90,118,-0.3,-19
COCCNc1nc(C)cc(-c2cc(-c3ccc(Cl)cc3)on2)n1,i,0.88,.,.,99,.,.
CN(Cc1ccccc1)S(=O)(=O)c1ccc(NC(=S)NC(=O)C(C)(C)C)cc1,i,1,13,100,72,-0.4,-8
Oc1c(C=Nc2ccccc2)sc(=S)n1Cc1ccccc1,i,0.82,.,.,112,.,-7
Cc1ccc(-n2cc(-c3ccccc3)c3c(=O)[nH]cnc32)cc1,i,0.94,-12,162,98,-0.2,3
COc1ccc(OC)c(C2=NOC(C(=O)Nc3cccnc3)C2)c1 (stereo unspecified),i,1.1,-360,89,102,-0.8,-7
Nc1nc(Sc2ccc([N+](=O)[O-])cc2[N+](=O)[O-])n[nH]1,i,1,.,.,91,.,.
CCOC(=O)c1ccccc1NC1c2ccccc2C(=O)N1C1CCN(C(=O)OCC)CC1 (stereo unspecified),i,1,.,.,104,-0.6,-1
Fc1ccccc1C1CC(c2ccco2)=Nc2ccccc2S1 (stereo unspecified),i,0.89,.,.,98,.,.
CN(C(=O)CSc1nc2c(cnn2-c2ccccc2)c(=O)[nH]1)C1CCS(=O)(=O)C1 (stereo unspecified),i,1.1,.,.,95,.,2

# Full records from above:
# O=C(N/N=C/c1ccccn1)c1cc(-c2ccc3ccccc3c2)n[nH]1 in the list: HSV replic up = i; HSV replic up primary fold = 0.93; Insulin prom inh = .; Insulin prom inh cell count = .; RGS16-Gao = 102; GALR2 ag = 1.2; PKD1 inh = 5
# COc1ccc(OC)c(C2=NOC(C(=O)Nc3cccnc3)C2)c1 (stereo unspecified) in the list: HSV replic up = i; HSV replic up primary fold = 1.1; Insulin prom inh = -360; Insulin prom inh cell count = 89; RGS16-Gao = 102; GALR2 ag = -0.8; PKD1 inh = -7

# Additional records.
SMILES,HSV replic up,HSV replic up primary fold,Insulin prom inh,Insulin prom inh cell count,RGS16-Gao,GALR2 ag,PKD1 inh
COc1ccc(NC(=O)CSc2nc3[nH]ncc3c(=O)n2-c2ccccc2C)cc1OC,i,0.92,28,85,31,-0.6,10
COC(=O)c1c(C#N)c(N)nc2c1CCC2,i,0.82,6,139,119,0.7,9
CCOC(=O)c1[nH]ncc1CN1CCCC(C(=O)c2cccc(OC(C)C)c2)C1 (stereo unspecified),i,1.1,.,.,97,.,3
Cc1ccc(S(=O)(=O)N/N=C/c2ccc(OC3CSC3)cc2)cc1,i,1,0,99,81,-0.9,0
Cc1cccc(OCC(=O)NNc2c3ccccc3nc3ccccc23)c1,i,0.79,-24,83,105,-0.5,3
CCOC(=O)C1=C(O)C(=O)N(c2ccc(S(N)(=O)=O)cc2)C1c1ccc(OC)cc1OC (stereo unspecified),i,0.89,8,98,103,-1.6,-10
O=C(N/N=C/c1c[nH]c2ccccc12)c1ccncc1,i,0.96,17,108,111,-0.7,6
CC(=O)c1ccc(OC2OCCOC2Oc2ccc(C(C)=O)cc2)cc1 (stereo unspecified),i,0.88,27,149,105,-0.8,6
COc1cc(OC)cc(C(=O)N[C@@H](CCSC)c2nc3ccccc3[nH]2)c1,i,0.91,.,.,79,.,0
O=C(O)CCc1ccc(-c2cccs2)n1NC(=O)c1ccco1,i,0.95,-95,89,98,0.4,13
N#CC12CCCCC1CC1CCCCC1(C#N)N2Cc1ccccn1 (stereo unspecified),i,1.1,.,.,103,-4.2,-5
COC(=O)Nc1ccc(Oc2ccccc2)cc1,i,0.75,-17,72,105,0.7,-4

# Among those listed so far, two contain a tert-butyl group:
SMILES,HSV replic up,HSV replic up primary fold,Insulin prom inh,Insulin prom inh cell count,RGS16-Gao,GALR2 ag,PKD1 inh
CC(C)(C)C1CCc2[nH]nc(C(=O)O)c2C1 (stereo unspecified),i,0.91,-1,66,107,6.6,-7
CN(Cc1ccccc1)S(=O)(=O)c1ccc(NC(=S)NC(=O)C(C)(C)C)cc1,i,1,13,100,72,-0.4,-8
